# From PubChem
# StopGo reporter = High Throughput Screening for Foot and Mouth Disease Virus Antivirals; human cells with a luciferase reporter of 2A StopGo recoding; control for the full effect not named in the record; Potency, µM (doses to about 57.9 µM), for the others: top-dose signal change, negative = less light; 1.2% of 410,000 active; AID 1159524, 2015; active = well fitted falling curve with a large enough effect; inconclusive = small, poorly fitted or top-dose-only effect; inactive = no such curve, though single readings can be large or run the other way; tested in HEK293T cells; further: on the % scale 0 is the no-effect control and ±100 the full control effect; nearly all actives have a fitted effect of over 45% in size; luciferase light after 4 h
# SARS PLP yeast = qHTS of Yeast-based Assay for SARS-CoV PLP. S. cerevisiae expressing SARS-CoV PLpro, growth rescue; control for the full effect not named in the record. Potency, µM (doses to about 32.9 µM), inactives show at the highest dose activity, positive = growth rescue. 0.19% of 330,000 active; further: 0% is about no effect; nearly all actives have a fitted effect of over 55% in size; growth read by luminescence after 48 h
# NS1 function inh = qHTS Assay for Inhibitors of Influenza NS1 Protein Function; S. cerevisiae slowed by influenza A NS1, growth recovery by OD600; AID 2326, 2010; Potency, µM (doses to about 46.1 µM), for the others: at the highest dose activity, positive = more growth; 0.4% of 270,000 active; further: actives are rising curves; nearly all actives have a fitted effect of over 50% in size
#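 In this qHTS, NS1 from influenza A is expressed in budding yeast, where it slows growth. Cells are switched from glucose to 2% galactose medium (pH 6.0, -URA), treated with compound, and growth recovery is read at OD600.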
# * hit, by the source's call; ? = inconclusive; nt = not tested or not shown; & = joins results of further samples; [ ] = dose if it differs, or a comment. Unless noted, the call rests on the fitted dose curve; in most records, active means well fitted rising curve with a large enough effect; inconclusive means small, poorly fitted or top-dose-only effect; inactive means no such curve, though single readings can be large or run the other way. Potency means the concentration at half of the fitted maximal effect. The list is partial. The share of hits here may be higher or lower than overall.
SMILES,StopGo reporter,SARS PLP yeast,NS1 function inh
NC(=O)C1CCN(c2nc(-c3ccc4c(c3)OCCO4)cs2)CC1,-8%,5%&6%,nt
CCC(=O)NC(c1ccco1)c1cc(Cl)c2ccccc2c1O (stereo not given),-12%,-1%,nt
Cc1ccc2c(c1)c1c(n2CCc2ccc(C)nc2)CCN(C)C1,-14%,0%,nt
O=C(OCC#CCSc1nnc(-c2cccc3ccccc23)o1)c1cnc[nH]1,?,-2%&-1%,nt
Cn1nnnc1Sc1ncnc2scc(-c3ccc4c(c3)OCO4)c12,0%,-3%,nt
Cn1nnnc1Sc1ncnc2scc(-c3cccc(F)c3)c12,?,-1%,nt
NC(=O)c1ccc(-c2noc(-c3cccc(Cl)c3)n2)cc1,-14%,2%,nt
CCOC(=O)c1cccc(-n2cccc2/C=C2\NC(=O)N(CC(=O)O)C2=O)c1,-10%,9%,nt
Cn1nnnc1Sc1ncnc2scc(-c3ccccc3C(F)(F)F)c12,?,10%,nt
Cn1nnnc1Sc1ncnc2scc(-c3cccc4c3sc3ccccc34)c12,28µM*,15%,nt
O=C(OCC#CCSc1nnc(-c2cccc3ccccc23)o1)c1ccc(Br)cc1,-4%,-16%&0%,nt
CN1CCN(C2=Nc3cc(F)ccc3Cc3ccccc32)CC1,-6%,-2%,nt
NC(=O)C1CCN(c2nc(-c3cccc(N)c3)cs2)CC1,44%[activator],0%&-14%,nt
CN(C)S(=O)(=O)c1ccc2c(c1)C(=O)c1cc(S(=O)(=O)N(C)C)ccc1CC2,5%,0%,nt
Cc1nc(SCc2nc3c(O)cccc3[nH]2)c2oc3ccccc3c2n1,-23%,-5%,nt
Cc1ccc(C(=O)Nc2ccc(N3CCCCC3)cc2)cc1,0%,5%,nt
Cn1c2cc(Br)sc2c2cnn(Cc3ccc(F)cc3F)c(=O)c21,17%,-8%&-1%,nt
CC(O)c1cc2c(s1)c1cnn(Cc3ccccc3F)c(=O)c1n2C (stereo not given),-15%,0%,nt
CC(=O)c1cccc(-c2csc(N3CCC(C(N)=O)CC3)n2)c1,-15%,9%&4%,nt
Cc1[nH]c(=S)[nH]c(=O)c1CCC1OCCO1,-16%,3%,9%
CCOC(=O)c1nnsc1-c1ccc(-c2snnc2C(=O)OCC)cc1,-7%,6%,6%
O=C(CCN1C(=O)c2ccccc2C1=O)Nc1ccccc1C(F)(F)F,-2%,1%,0%
NS(=O)(=O)c1cc2c(cc1Cl)NC(CC1CCCC1)NS2(=O)=O (stereo not given),-12%,-1%,-18%
Cc1ccc(NC(=O)n2ncc3c(C)cccc32)cc1F,35%[activator],0%,1%
Nc1ccc(C(=O)Nc2cccc(N)c2)cc1,33%[activator],-3%,10%
# Further entries follow:
SMILES,StopGo reporter,SARS PLP yeast,NS1 function inh
O=C(c1c[nH]c(C(=O)C(Cl)(Cl)Cl)c1)c1ccc(F)cc1F,-11%,1%,5%
COc1ccccc1-c1nc2ccc(Cl)cc2c(=O)n1O,2%,-1%,3%
O=c1[nH]c(=O)n(-c2ccccc2F)c(O)c1/C=C1\C=Nc2ccccc21,?,-1%,5%
Cc1ccc(C(=O)NCc2ccc3c(c2)OCO3)cc1C,58%[activator],-3%,-7%
Fc1cccc(Nc2ncnc3sccc23)c1,-16%,-3%,8%
CC(=O)Nc1cccc(OCCCOc2ccc([N+](=O)[O-])cc2)c1,12%,0%,6%
N#CC12CNCC1CN=N2 (stereo not given),-12%,2%,6%
O=C(NCCCn1ccnc1)c1ccc(-c2ccccc2)cc1,21%,2%,8%
C=CCNC(=O)N1c2ccccc2Sc2ccccc21,-10%,-1%,-2%
O=c1[nH]cc(I)cc1I,-7%,-1%,2%
Cc1ccc(N2CCN(CC(O)COc3cccc4ccccc34)CC2)cc1 (stereo not given),-7%,-11%,-46%
CCOC(=O)Cc1csc2nc(-c3ccccc3)nn12,24%,0%,-7%
Cc1ccc(C(=O)Nc2ccsc2C(=O)O)cc1,-2%,14%,-5%
Cc1nc2nc(-c3ccc(F)cc3)cn2nc1C,-26%,-2%,-1%
CCOC(=O)c1ccc(NC(=O)Oc2cc(C)c(Cl)cc2C(C)C)cc1,-6%,-1%,-48%
COc1cc(OC)c2cc(C(=O)N/N=C/c3ccccc3O)[nH]c2c1,-16%,1%,1%
CCOC(=O)CC(=O)NC(C)(C)CCCCC(C)(C)NC(=O)CC(=O)OCC,-9%,2%,-7%
CCCCCCCCCCC[N+](C)(C)CC/C=C1/c2ccccc2Sc2ccc(Cl)cc21,?,-3%,-89%
COc1ccc(/C=N\NC(=O)c2cc(O)c(O)c(O)c2)cc1COc1ccc(C(=O)OCC(C)C)cc1,13%,5%,6%
COc1ccccc1/C=C/C(=O)c1ccccc1,1%,-7%,-73%
O=C(Oc1ccc[nH]c1=O)c1cccc(Cl)c1,-14%,0%,-7%
COc1ccc(C(=O)O)nc1C,0%,1%,3%
Cc1ccc(NC(=O)Nc2nc3ccccc3s2)cc1NC(=O)Nc1nc2ccccc2s1,4%,-1%,7%
O=C1NN(c2cccc(Br)c2)C(=O)/C1=C\c1ccc(O)cc1,-19%,-1%,-8%
COc1cc2c(cc1OC)C(C)N(CCN1C(=O)c3ccccc3C1=O)CC2 (stereo not given),-9%,0%,-3%

# Structures shown so far with two or more sulfur atoms:
SMILES,StopGo reporter,SARS PLP yeast,NS1 function inh
Cn1nnnc1Sc1ncnc2scc(-c3ccc4c(c3)OCO4)c12,0%,-3%,nt
Cn1nnnc1Sc1ncnc2scc(-c3cccc(F)c3)c12,?,-1%,nt
Cn1nnnc1Sc1ncnc2scc(-c3ccccc3C(F)(F)F)c12,?,10%,nt
Cn1nnnc1Sc1ncnc2scc(-c3cccc4c3sc3ccccc34)c12,28µM*,15%,nt
CN(C)S(=O)(=O)c1ccc2c(c1)C(=O)c1cc(S(=O)(=O)N(C)C)ccc1CC2,5%,0%,nt
CCOC(=O)c1nnsc1-c1ccc(-c2snnc2C(=O)OCC)cc1,-7%,6%,6%
NS(=O)(=O)c1cc2c(cc1Cl)NC(CC1CCCC1)NS2(=O)=O (stereo not given),-12%,-1%,-18%
Cc1ccc(NC(=O)Nc2nc3ccccc3s2)cc1NC(=O)Nc1nc2ccccc2s1,4%,-1%,7%

# The list goes on:
SMILES,StopGo reporter,SARS PLP yeast,NS1 function inh
O=C1CNC(=S)N1Cc1cccc(Cl)c1,-5%,3%,?
O=[N+]([O-])c1ccc2nc(Cl)nc(-c3ccccc3)c2c1,?,0%,4%
Cc1cccc(C)c1NC(=O)NCc1ccco1,-6%,3%,3%
CC(=O)CSc1nnc(-c2ccco2)n1-c1ccccc1,-10%,1%,-1%
C=CCNC(=O)c1ccc(OC)cc1,13%,1%,-2%
OCCCCc1nccc2c1[nH]c1ccccc12,0%,0%,-4%
COc1ccc(CCNCc2c(OC)ccc3ccccc23)cc1,-17%,-1%,-7%
Cc1ccc(N=C2C(=O)Nc3ccc(C)c(Br)c32)cc1,16%,1%,-4%
Cc1cc(OCC(O)CN2CCc3ccccc3C2)cc(C(C)C)c1 (stereo not given),-9%,-2%,-2%
C(=N\N1CCOCC1)/c1ccsc1,16%,-1%,3%
O=C(CN1CCN(c2ccc(Cl)cc2)CC1)c1ccccc1,16%,0%,-9%
COc1cc([N+](=O)[O-])cc(/C=C2/SC(=S)N(Cc3ccccc3)C2=O)c1O,?,-11%,-4%
CCCNC(=O)Nc1ccc(C)cc1C,10%,-1%,?
Cc1cccc2c1c1ccc3c(c1n2C)C(=O)C=CC3=O,14µM*,1%,21%
C/C=C/CC1(CC)C(=O)NC(=S)NC1=O,-23%,1%,6%
Cc1ccc(/C=C(\C#N)C(=O)Nc2cccc(C)n2)cc1,59%[activator],2%,0%
COc1ccc2c(c1)c(/C=C/c1cc[n+](C)cc1)cn2C,?,1%,-2%
N#Cc1ccc(NC(=O)Nc2cccc(C#N)c2)cc1,?,-3%,-5%
COC(=O)c1cc(OC)c(OC)cc1N1C(=O)CCCC1=O,-14%,-3%,6%
O=C(COc1ccc([N+](=O)[O-])cc1Cl)N1CCOCC1,4%,-1%,9%
CCC(C(=O)OC)n1cnc2c(nnn2-c2cccc(OC)c2)c1=O (stereo not given),28%,-1%,4%
COc1cc2c(cc1OC)C(/C=C/c1ccco1)=NCC2,?,0%,7%
N#Cc1ccccc1CN1C(=O)NC2(CCCCCC2)C1=O,-21%,2%,4%
NC(N)=NS(=O)(=O)c1ccc(N=C2C(=O)Nc3ccccc32)cc1,-11%,-1%,3%
COc1cccc2cc(C(=O)NCCN3CCOCC3)c(=O)oc12,-9%,-1%,3%

# Part of the list above, reformatted:
> C(=N\N1CCOCC1)/c1ccsc1
  StopGo reporter = 16%	SARS PLP yeast = -1%	NS1 function inh = 3%
> NC(N)=NS(=O)(=O)c1ccc(N=C2C(=O)Nc3ccccc32)cc1
  StopGo reporter = -11%	SARS PLP yeast = -1%	NS1 function inh = 3%

# The list goes on:
SMILES,StopGo reporter,SARS PLP yeast,NS1 function inh
CCCC(=O)O/N=C(\c1ccccc1)c1ccncc1,3%,-1%,3%
Nc1nc(N)c(N=Nc2ccc(C(=O)O)cc2)c(N)n1,-5%,0%,-3%
O=C1OC(c2ccc(F)cc2)=N/C1=C\C=C/c1ccccc1,0%,1%,-1%
CCN1CCCC(Sc2nc3c([nH]2)c(=S)n(C)c(=O)n3C)C1 (stereo not given),66%[activator],-2%,-6%
O=C(Oc1ccc(NC(=O)c2cc3c(cc2Br)OCO3)cc1)c1ccccc1,3%,-2%,0%
Cc1nn(-c2ccccc2)c2c1C(c1ccc([N+](=O)[O-])cc1)C(C#N)=C(N)O2 (stereo not given),?,-1%,9%
Cc1ccc(Nc2ccc(N)cc2S(=O)(=O)O)cc1,-12%,3%,3%
Cc1cc(N=Nc2c(O)c3ccccc3[nH]c2=O)ccc1N=Nc1ccc(C(=O)N(C)C)cc1,13%,-1%,-4%
Cc1ccc(N2C(=O)c3ccccc3NC2c2ccccc2O)cc1 (stereo not given),23%,0%,-3%
CN(C)S(=O)(=O)c1ccc(N)c([N+](=O)[O-])c1,-10%,0%,0%
COC(=O)c1nn(-c2ccc(OC)cc2)ccc1=O,-15%,-2%,2%
NC(=S)Nc1cccc(O)c1,-3%,-3%,6%
CC(C)n1cnc2c(=S)nc[nH]c21,-14%,3%,4%
CC(C)(C)NC(=O)NCC1CCCC1NC(=O)NC(C)(C)C (stereo not given),3%,0%,-2%
CN(C)c1nc(=Nc2cccc(Cl)c2)ss1,22%,-1%,-52%
CCC(N)Cc1c[nH]c2ccccc12 (stereo not given),1%,4%,5%
C=CCOc1ccn(C)c(=O)n1,-3%,0%,3%
C#CC[N+]1(C)[C@@H]2CC(OC(=O)C(CO)c3ccccc3)C[C@H]1C(O)C2 (stereo not given in full),6%,1%,-1%
O=C(O)CN1C(=O)C(=O)N(Cc2ccccc2F)C1=O,-6%,-2%,4%

# A few values from the list:
# `CC(C)n1cnc2c(=S)nc[nH]c21` in SARS PLP yeast → 3%
# `Nc1nc(N)c(N=Nc2ccc(C(=O)O)cc2)c(N)n1` in NS1 function inh → -3%
# `O=C(Oc1ccc(NC(=O)c2cc3c(cc2Br)OCO3)cc1)c1ccccc1` in StopGo reporter → 3%
# `CCCC(=O)O/N=C(\c1ccccc1)c1ccncc1` in NS1 function inh → 3%

# Quoted at random: 5 records from the list, in no set order.
SMILES,StopGo reporter,SARS PLP yeast,NS1 function inh
Cc1ccc(Nc2ccc(N)cc2S(=O)(=O)O)cc1,-12%,3%,3%
C=CCOc1ccn(C)c(=O)n1,-3%,0%,3%
Cc1cc(N=Nc2c(O)c3ccccc3[nH]c2=O)ccc1N=Nc1ccc(C(=O)N(C)C)cc1,13%,-1%,-4%
CN(C)S(=O)(=O)c1ccc(N)c([N+](=O)[O-])c1,-10%,0%,0%
CC(C)(C)NC(=O)NCC1CCCC1NC(=O)NC(C)(C)C (stereo not given),3%,0%,-2%
